Assay outcomes (PubChem BioAssay)
RE007 growth inh = less growth of the S. pombe RE007 Vpr strain. S. pombe RE007 Vpr strain, BacTiter-Glo ATP luminescence, 24 h; control for the full effect not named in the record. Potency, µM (series often up to 92.2 µM), without a hit: at the highest dose activity change, negative = less growth. 360,000 compounds, 0.21% hits; active = well fitted falling curve with a large enough effect; inconclusive = small, poorly fitted or top-dose-only effect; inactive = no such curve, though single readings can be large or run the other way;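 also: % is scaled to controls: 0 for no effect and ±100 for the full control effect; nearly all actives have a fitted effect of over 50% in size; the assay follows cell death caused by Vpr and the record does not say whether a fall means rescue or toxicity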
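Fission yeast RE007 carrying one integrated HIV-1 vpr copy, seeded at OD 0.01 in PMG+AL medium with 23 nL pinned compound. Grown 24 h at 30 degrees; viability read by BacTiter-Glo luminescence after 5 min.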
NS1 function inh = inhibitors of influenza NS1 protein function; S. cerevisiae slowed by influenza A NS1, growth recovery by OD600; Potency, µM (doses to about 46.1 µM), inactives show at the highest dose activity, positive = more growth; 270,000 compounds, 0.4% hits; active means well fitted rising curve with a large enough effect; inconclusive means small, poorly fitted or top-dose-only effect; inactive means no such curve, though single readings can be large or run the other way; also: nearly all actives have a fitted effect of over 50% in size
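OD600 was taken as the measure of yeast growth restored by compound in an NS1-expressing S. cerevisiae strain. Cells had been washed out of glucose medium and diluted 1:100 into galactose -URA medium, pH 6.0.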
MARV entry inh = Marburg virus entry inhibition; Potency, µM (series often up to 37.8 µM), for inactives: at the top dose activity change, negative = inhibition, hits mostly inhibitors; 300,000 compounds, 1.8% hits; Marburg virus pseudotyped entry inhibition, cell reporter; control for the full effect not named in the record; about a third of the inactives were read at about 46 µM; AID 540276; active = well fitted inhibition curve with a large enough effect; inconclusive = small, poorly fitted or top-dose-only effect, or effect the other way; inactive = flat fitted curve, though single readings scatter; tested in HEK293 cells; about a fifth of its hits are not listed in these tables; also: % is scaled to controls: 0 for no effect and ±100 for the full control effect; luciferase read-out
Cruzain inh noDet = inhibitors of Trypanosoma cruzi cruzain without detergent; P25779; purified cruzain, Z-FR-AMC fluorescence, no detergent; Potency, µM, for inactives: max response, negative = inhibition, hits mostly inhibitors; 200,000 compounds, 2.3% hits; AID 1476;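 also: plate controls were enzyme without inhibitor for no effect and buffer without enzyme for full effect; nearly all actives have a fitted effect of over 40% in size; top concentration of the series not given in the record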
Target sequence (P25779 123-467 limits assumed): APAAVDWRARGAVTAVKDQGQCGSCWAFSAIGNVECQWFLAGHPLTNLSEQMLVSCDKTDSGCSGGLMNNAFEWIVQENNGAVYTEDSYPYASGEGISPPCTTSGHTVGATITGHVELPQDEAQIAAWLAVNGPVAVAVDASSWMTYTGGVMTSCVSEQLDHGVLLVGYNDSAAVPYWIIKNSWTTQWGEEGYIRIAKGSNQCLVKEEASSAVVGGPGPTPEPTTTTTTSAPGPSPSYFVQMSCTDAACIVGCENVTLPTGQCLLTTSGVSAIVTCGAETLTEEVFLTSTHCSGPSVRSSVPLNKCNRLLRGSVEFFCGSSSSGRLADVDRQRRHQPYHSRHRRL
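Detergent-free condition (0.00005% Triton X-100) in acetate buffer pH 5.5 with DTT. 1.5 nM enzyme and compound were pre-mixed 15 min, then 2 uM Z-FR-AMC substrate added; reaction progress from fluorescence change between first and third reads (60 s).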
Lassa entry inh = Lassa virus entry inhibition. AID 540256. Lassa virus pseudotype entry inhibition, cell reporter; control for the full effect not named in the record. Potency, µM (series often up to 37.9 µM), for inactives: at the highest dose activity change, negative = inhibition, actives largely listed as inhibitors. 300,000 compounds, 1.2% hits; active means well fitted inhibition curve with a large enough effect; inconclusive means small, poorly fitted or top-dose-only effect, or effect the other way; inactive means flat fitted curve, though single readings scatter; tested in HEK293 cells; also: % is scaled to controls: 0 for no effect and ±100 for the full control effect; nearly all actives have a fitted effect of over 50% in size; luciferase read-out
StopGo reporter = lowers the luciferase signal of an FMDV 2A StopGo reporter; human cells with a luciferase reporter of 2A StopGo recoding; control for the full effect not named in the record; Potency, µM (series often up to 57.9 µM), for inactives: top-dose signal change, negative = less light; 410,000 compounds, 1.2% hits; AID 1159524; active = well fitted falling curve with a large enough effect; inconclusive = small, poorly fitted or top-dose-only effect; inactive = no such curve, though single readings can be large or run the other way; tested in HEK293T cells; also: % is scaled to controls: 0 for no effect and ±100 for the full control effect; nearly all actives have a fitted effect of over 45% in size; luciferase light after 4 h
SARS PLP yeast = inhibitors of SARS-CoV papain-like protease in yeast | Potency, µM (highest dose often 32.9 µM), without a hit: at the top dose activity, positive = growth rescue | AID 485353 | 330,000 compounds, 0.19% hits | S. cerevisiae expressing SARS-CoV PLpro, growth rescue; control for the full effect not named in the record; active means well fitted rising curve with a large enough effect; inconclusive means small, poorly fitted or top-dose-only effect; inactive means no such curve, though single readings can be large or run the other way; also: 0% is about no effect; nearly all actives have a fitted effect of over 55% in size; growth read by luminescence after 48 h
Cruzain inh Det = inhibitors of Trypanosoma cruzi cruzain with detergent; P25779; purified cruzain, Z-FR-AMC fluorescence, 0.01% Triton; Potency, µM, without a hit: max response, negative = inhibition, actives largely listed as inhibitors; 200,000 compounds, 0.43% hits;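 also: plate controls were neutral wells for no effect and buffer without enzyme for full effect; nearly all actives have a fitted effect of over 40% in size; top concentration of the series not given in the record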
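Compounds were screened in titration against cruzain (1.5 nM) with 0.01% Triton X-100 to counter colloidal aggregation. Activity was the AMC fluorescence increase over 60 s after adding 2 uM Z-FR-AMC at pH 5.5.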
Active calls of the source: *; u = inconclusive; x = no result given; [ ] = remark or other dose. Unless noted, calls follow the shape of the dose curve; as a rule, active = well fitted curve in the direction sought with a large enough effect; inconclusive = small, poorly fitted or top-dose-only effect, or another doubt; inactive = no such curve, though single readings can be large; an effect the other way counts as inactive or inconclusive. Potency is read from the fitted curve at half-maximal effect.

1	Cc1ccccc1C(=O)NNC(=O)C1CCCN(c2ncccn2)C1 (centres undefined)
2	CN(C(=O)CSc1nnc(Nc2ccccc2F)s1)C1CCS(=O)(=O)C1 (centres undefined)
3	Cc1cc([N+](=O)[O-])ccc1NC(=O)CSc1nncn1-c1cccnc1
4	Cc1ccc(S(=O)(=O)c2cn(Cc3ccc(F)cc3)c3cc(F)c(F)cc3c2=O)cc1
5	CN(CC(=O)Nc1cccc(F)c1)C(=O)CCc1nc2cc(S(=O)(=O)N3CCOCC3)ccc2n1C
6	O=C1/C(=C\c2ccccc2Cl)SC(=S)N1CCC(=O)N1CCCc2ccccc21
7	COc1cccc(C=NNC(=O)CCCC(=O)NN=Cc2cccc(OC)c2)c1
8	CCOC(=O)c1sc(NC(=O)CSc2nnc(C)s2)c(C(=O)OCC)c1C

| assay / compound | 1 | 2 | 3 | 4 | 5 | 6 | 7 | 8 |
| --- | --- | --- | --- | --- | --- | --- | --- | --- |
| RE007 growth inh | -4.8% | -1.6% | -8.9% | x | -13.1% | -7.3% | 13.6% | 10.9% |
| NS1 function inh | 6.6% | x | 2.0% | x | x | 0.7% | x | -31.2% |
| MARV entry inh | 5.4% | -2.1% | u | 0.8%[46.1 µM] | u | 1.7% | -2.3% | 5.4% |
| Cruzain inh noDet | -2.2% | x | x | -2.9% | x | u | x | u |
| Lassa entry inh | 1.9% | 28.8% | u | 11.0%[46.1 µM] | u | -4.4% | -1.2% | 2.9% |
| StopGo reporter | x | 20.1% | -0.6% | 2.1% | 1.6% | -29.6% | -11.7% | -6.5% |
| SARS PLP yeast | -4.5% | 0.5% | 0.5% | x | -3.2% | -21.9% | x | -0.5% |
| Cruzain inh Det | 5.2% | x | x | -0.9% | x | -2.4% | x | -9.6% |

9	CCOC(=O)N1CCC(NC(=O)CCc2nc(-c3ccccc3F)no2)CC1
10	O=C(c1cc(-c2cccc(Br)c2)nc2ccccc12)N1CCCC1
11	CCn1ccnc1[C@@H]1C[C@H]2CN(c3ccccc3OC)C(=O)[C@]23CCCN13
12	O=C(O)/C(=C\c1ccc(F)cc1)c1ccc(-c2ccccc2)cc1
13	CC(=O)c1cccc(N=c2scc(-c3ccc(S(=O)(=O)N4CCOCC4)cc3)n2CCO)c1
14	CCC(=O)Nc1ccc(Cl)c(NC(=S)NC(C)=O)c1
15	COC(=O)c1cc(-c2cccc([N+](=O)[O-])c2)c2c(=O)n(C)c(=O)n(C)c2n1
16	CC1(C)CC(C)(c2ccc(O)cc2O)N(c2cccc(Cl)c2)C(=S)N1 (centres undefined)

| assay / compound | 9 | 10 | 11 | 12 | 13 | 14 | 15 | 16 |
| --- | --- | --- | --- | --- | --- | --- | --- | --- |
| RE007 growth inh | 12.8% | -0.8% | 4.6% | -4.2% | -4.9% | 4.3% | -0.7% | 8.7% |
| NS1 function inh | -1.1% | -25.2% | -1.4% | -45.9% | -14.7% | x | 3.8% | -3.7% |
| MARV entry inh | 0.0% | x | -0.7%[46.1 µM] | 4.1%[46.1 µM] | u | 18.5%[46.1 µM] | x | -32.5% |
| Cruzain inh noDet | 3.1% | x | x | x | u | x | x | 12.6% |
| Lassa entry inh | 6.8% | x | 26.8%[46.1 µM] | 13.3% | u | 1.6%[46.1 µM] | x | 11.1% |
| StopGo reporter | 0.0% | -4.3% | -16.7% | -15.4% | 20µM* | 20.8% | -26.2% | 4.7% |
| SARS PLP yeast | -2.1% | -14.9% | -1.5% | -11.8% | 9.2% | 0.1% | 0.7% | 16.0% |
| Cruzain inh Det | -0.6% | x | x | x | -14.3% | x | x | -4.1% |

17	O=C(CN1C(=O)NC2(CCCCCCC2)C1=O)Nc1ccc(OC(F)F)cc1
18	NC(=O)c1nsc(C(=O)N(c2ccccc2)C(C(=O)NCc2ccc(F)cc2)c2ccc(O)cc2)c1N (centres undefined)
19	O=C(NCCC(=O)N1CCCCCCC1)c1ccc(Cl)cc1
20	O=C(NCC1CCCO1)C1CCC(N2C(=O)c3ccccc3C2=O)CC1 (centres undefined)
21	COC(=O)c1ccc(CS(=O)(=O)c2ccc(C)cc2)cc1
22	Cc1ccc2c(c1)CCCN2C(=O)c1cc(C)on1
23	CCC(=O)Nc1ccc2oc(-c3cccc(C)c3)nc2c1
24	Cc1onc(-c2c(Cl)cccc2Cl)c1COC(=O)c1ccc(Cl)cc1[N+](=O)[O-]

| assay / compound | 17 | 18 | 19 | 20 | 21 | 22 | 23 | 24 |
| --- | --- | --- | --- | --- | --- | --- | --- | --- |
| RE007 growth inh | -24.8% | 8.7% | 7.2% | 1.2% | 5.0% | 0.5% | -23.3% | -0.7% |
| NS1 function inh | x | 4.9% | x | -9.2% | -10.7% | -11.2% | -29.5% | 3.2% |
| MARV entry inh | 29.7% | u | 12.1% | 5.6% | 4.8% | x | u | u |
| Cruzain inh noDet | x | x | x | -1.6% | -2.5% | x | u | x |
| Lassa entry inh | -20.5% | 2.24µM* | 10.6% | 17.5% | -6.0% | x | u | u |
| StopGo reporter | -0.5% | -10.1% | 19.6% | x | 25.6% | -17.3% | 0.0% | u |
| SARS PLP yeast | 0.9% | 0.6% | -7.6% | 3.2% | -7.4% | 0.2% | -6.3% | -0.1% |
| Cruzain inh Det | x | x | x | 2.6% | -6.8% | x | -0.8% | x |

25	O=S(=O)(/N=C(/Sc1ccccc1)c1ccccc1)c1ccccc1
26	CCN(CC)C(=O)N1CCN(C(=O)N(CC)CC)CC1
27	CCn1cc(/C=C(\NC(=O)c2cc(OC)c(OC)c(OC)c2)C(=O)NCCCN2CCOCC2)c2ccccc21
28	Cn1c(=O)c2c(nc(N3CCNCC3)n2Cc2ccccc2Cl)n(C)c1=O
29	CCCS(=O)(=O)c1nc(S(=O)(=O)c2ccc(C)cc2)c(N2CCCC(C)C2)s1 (centres undefined)
30	Nc1ncnc(SCc2c(F)cccc2Cl)n1
31	CCOC(=O)c1ccc(NC(=O)Nc2ccc(OC)c(OC)c2)cc1
32	Cc1ccc(NC(=O)CCNS(=O)(=O)c2ccc3[nH]c(=O)oc3c2)cc1F

| assay / compound | 25 | 26 | 27 | 28 | 29 | 30 | 31 | 32 |
| --- | --- | --- | --- | --- | --- | --- | --- | --- |
| RE007 growth inh | 9.0% | -4.8% | -3.2% | -18.7% | -6.9% | 30.3% | 16.2% | -28.4% |
| NS1 function inh | 0.5% | 0.6% | -5.8% | 2.3% | 5.1% | -41.1% | -27.3% | -2.6% |
| MARV entry inh | 18.4% | 8.3%[46.1 µM] | x | 17.0%[46.1 µM] | x | x | 4.1% | 6.8%[46.1 µM] |
| Cruzain inh noDet | -0.6% | x | x | x | x | x | 8.7% | x |
| Lassa entry inh | 2.9% | 11.6% | x | -4.8% | x | x | 0.0% | 4.5%[46.1 µM] |
| StopGo reporter | u | -12.8% | 3.1% | -7.6% | 15.7% | -7.3% | -13.2% | 19.3% |
| SARS PLP yeast | 2.8% | 0.0% | 10.5% | 0.0% | -2.9% | 0.8% | -5.6% | -4.1% |
| Cruzain inh Det | 2.6% | x | x | x | x | x | -8.7% | x |

33	CSc1cccc(NC(=O)C(C)NS(=O)(=O)c2ccc(F)cc2)c1 (centres undefined)
34	COc1ccc(-c2nc(SCC(=O)Nc3ccccc3)c(-c3ccc(F)cc3)[nH]2)cc1OC
35	COc1cc(/C=N/N2C(=O)c3ccccc3C2=O)ccc1O
36	CCCn1c(SCC(=O)NC(=O)Nc2ccc(C)cc2C)n[nH]c1=O
37	O=S(=O)(/C=C/c1ccccc1)Nc1ccc2c(c1)OCO2
38	COc1ccc(-c2nc3cc(NC(=O)COc4ccc(F)cc4)ccc3o2)cc1
39	Cc1ccc(-n2nnnc2CNC(=O)c2ccccc2F)cc1C
40	O=C(COC(=O)/C=C/c1ccccc1Cl)NCCNC(=O)COC(=O)/C=C/c1ccccc1Cl

| assay / compound | 33 | 34 | 35 | 36 | 37 | 38 | 39 | 40 |
| --- | --- | --- | --- | --- | --- | --- | --- | --- |
| RE007 growth inh | 7.8% | x | -5.5% | -9.3% | 10.8% | x | x | -3.4% |
| NS1 function inh | 1.2% | x | 1.6% | 5.5% | -14.1% | x | x | 1.8% |
| MARV entry inh | 10.0% | -10.2%[46.1 µM] | -16.3% | 0.7% | 5.5%[46.1 µM] | u | x | 28.5% |
| Cruzain inh noDet | 9.8% | 22.3% | 1.9% | -26.7% | 3.5% | 2.4% | -7.4% | x |
| Lassa entry inh | 1.7% | -24.4%[46.1 µM] | 20.9% | -2.8% | -3.2% | 24.7%[46.1 µM] | u | 12.2% |
| StopGo reporter | 20.4% | u | 6.9% | 9.0% | 42.4%[activator] | 11.2% | -6.7% | -17.8% |
| SARS PLP yeast | -2.4% | x | 21.7% | -1.3% | 4.2% | x | x | -1.9% |
| Cruzain inh Det | 3.1% | -10.5% | -10.3% | 1.4% | 4.9% | -0.5% | 2.0% | x |

41	O=C(NCc1ccccc1)c1ccc(Oc2ccc(C(=O)NCc3ccccc3)cc2)cc1
42	CCC(C)c1ccccc1N1CC(C(=O)N2CCN(S(=O)(=O)c3ccc(F)cc3)CC2)CC1=O (centres undefined)
43	Cn1cc(CN2CCC(n3nccc3NC(=O)CCCc3ccccc3)CC2)cn1
44	COc1ccc(OC)c(C2=NOC(C(=O)N3CCN(c4ccccc4)CC3)C2)c1 (centres undefined)

| assay / compound | 41 | 42 | 43 | 44 |
| --- | --- | --- | --- | --- |
| RE007 growth inh | 14.2% | 6.9% | -2.4% | 14.2% |
| NS1 function inh | 4.4% | x | -10.7% | -82.4% |
| MARV entry inh | -22.4% | 1.8% | x | 0.0% |
| Cruzain inh noDet | -3.4% | x | x | 6.2% |
| Lassa entry inh | -13.7% | 0.5% | x | x |
| StopGo reporter | 0.0% | -17.1% | -11.5% | -8.2% |
| SARS PLP yeast | 4.7% | -3.4% | -2.5% | 5.0% |
| Cruzain inh Det | 3.8% | x | x | -2.6% |
